D2 potentiator: positive allosteric modulators of human D2 dopamine receptor; P14416; DiscoveRx D2 beta-arrestin cells, luminescence, 90 min; 100% = 57 uM dopamine signal; potentiation, % (no concentration beside the values); actives 0.23% (n = 360,000); active = potentiation of 50% or more; inconclusive = 30% to 50%; inactive = 30% or less;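 also: compound concentration not given in the record; tested on top of an EC20 dose of dopamine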
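PathHunter D2 cells, attached overnight at 37 deg C, received compound in DMSO plus dopamine at EC20 (50 nM final) for 90 min at 37 deg C. Beta-arrestin recruitment was read as luminescence after 1 h with detection reagent at ambient temperature.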
gsp ag: activates gsp, the McCune-Albright syndrome mutation; Potency, µM (highest dose often 76.9 µM), inactives show at the top dose activation (cAMP increase), usual class: activators; AID 624287; gsp mutant cells, cAMP HTRF, 30 min; control for the full effect not named in the record; actives 0.13% (n = 340,000); active = well fitted activation curve with a large enough effect; inconclusive = small, poorly fitted or top-dose-only effect, or another doubt; inactive = no such curve, though single readings can be large or run the other way; cell line not stated here;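 also: phosphodiesterase inhibitor Ro 20-1724 added with compounds to block cAMP breakdown; potency is read from the fitted curve at half-maximal effect; nearly all actives have a fitted effect of over 60% in size; about a fifth of the inactives were tested at one dose only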
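Cells in DMEM/10% FBS with G418 were pretreated with compounds in DMSO plus […] (300 uM stock) for 30 min at 37C. cAMP was measured by HTRF (cAMP-d2 plus anti-cAMP antibody-K) after 30 min at room temperature.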
D2 ag: agonists of human D2 dopamine receptor (beta-arrestin) | DiscoveRx PathHunter D2 beta-arrestin, luminescence, 90 min; 100% = 57 uM dopamine signal | activation, % (test concentration not listed) | actives 0.084% (n = 360,000) | AID 624465; in the data active = activation above about 40%; inconclusive = about 15% to 40%; inactive = below about 15%; also: compound concentration not given in the record; the text of the record calls up to 30% inactive
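Agonist mode: compounds alone added to overnight-plated D2 PathHunter cells for 90 min at 37 C, with 57 uM final dopamine (EC100) defining full response. Beta-arrestin recruitment detected by chemiluminescent reagent, read after 1 h at ambient temperature.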
Six1-Eya2 inh: inhibitors of human Six1/Eya2 interaction; activity change, % (test concentration not listed); Q15475+O00167; AID 651725; actives 0.56% (n = 360,000); AlphaScreen GST-Six1/His-Eya2 binding, biochemical; hits give low values; control for the full effect not named in the record; in the data active = activity change below about -65%; inconclusive = about -30% to -65%; inactive = above about -30%; also: % is scaled to controls: 0 for no effect and ±100 for the full control effect; compound concentration not given in the record
Target sequence (O00167 whole entry, looked up): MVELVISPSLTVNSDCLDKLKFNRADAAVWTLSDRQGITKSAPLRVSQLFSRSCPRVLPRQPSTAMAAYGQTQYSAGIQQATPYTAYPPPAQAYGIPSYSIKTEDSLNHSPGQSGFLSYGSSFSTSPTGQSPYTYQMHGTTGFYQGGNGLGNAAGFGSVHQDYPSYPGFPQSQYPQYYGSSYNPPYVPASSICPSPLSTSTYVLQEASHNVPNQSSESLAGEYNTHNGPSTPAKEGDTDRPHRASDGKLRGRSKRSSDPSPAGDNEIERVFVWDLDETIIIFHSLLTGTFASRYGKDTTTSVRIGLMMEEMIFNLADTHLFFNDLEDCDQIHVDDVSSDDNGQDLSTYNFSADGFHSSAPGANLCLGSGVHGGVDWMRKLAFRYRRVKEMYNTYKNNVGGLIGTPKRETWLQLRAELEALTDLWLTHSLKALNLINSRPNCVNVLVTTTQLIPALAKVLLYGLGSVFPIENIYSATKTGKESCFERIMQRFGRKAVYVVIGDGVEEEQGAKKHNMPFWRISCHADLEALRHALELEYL
Target sequence (Q15475 whole entry, looked up): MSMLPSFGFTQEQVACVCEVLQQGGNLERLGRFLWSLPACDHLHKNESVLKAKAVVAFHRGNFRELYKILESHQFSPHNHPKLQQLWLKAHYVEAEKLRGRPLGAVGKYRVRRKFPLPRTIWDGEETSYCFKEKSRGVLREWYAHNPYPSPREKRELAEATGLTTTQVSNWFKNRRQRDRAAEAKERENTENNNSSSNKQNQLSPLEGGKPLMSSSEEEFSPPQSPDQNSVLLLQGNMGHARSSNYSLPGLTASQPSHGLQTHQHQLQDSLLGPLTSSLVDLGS
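Six1/Eya2 binding was read as AlphaScreen signal after compounds were pinned into GST-Six1 plus His-tagged Eya2 (5X stock 250/500 nM) in pH 8.0 Tris/NaCl/TCEP buffer, beads added, then incubated 1 h, 37 C, dark.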
gsp antag: antagonizes gsp, the McCune-Albright syndrome mutation. gsp-mutant cells, cAMP HTRF, 30 min; control for the full effect not named in the record. Potency, µM (series often up to 76.9 µM), for inactives: at the highest dose activity change, negative = inhibition, actives largely listed as inhibitors. actives 0.4% (n = 340,000); active = falling curve of any shape with a large fitted effect; inconclusive = falling curve, mostly with a smaller effect; inactive = flat or rising curve; cell line not stated here;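 also: intracellular cAMP measured with PDE inhibitor Ro 20-1724 present during compound exposure; potency is read from the fitted curve at half-maximal effect; % is scaled to controls: 0 for no effect and ±100 for the full control effect; nearly all actives have a fitted effect of over 65% in size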
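Measurement of cellular cAMP by homogeneous time-resolved fluorescence following a 30 min compound exposure at 37C. The PDE inhibitor […] was present throughout; the assay buffer was DPBS with 0.05% BSA and 0.005% Tween 20.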
CtBP-E1A inh: CtBP/E1A binding inhibition | AlphaScreen GST-E1A/His-CtBP binding, 1536-well; hits give low values; control for the full effect not named in the record | activity change, % (test concentration not listed) | actives 0.49% (n = 340,000) | AID 651724; in the data active means activity change below about -65%; inconclusive means about -30% to -65%; inactive means above about -30%; also: % is scaled to controls: 0 for no effect and ±100 for the full control effect; compound concentration not given in the record
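Homogeneous bead-based format: GST-tagged E1A captured on glutathione donor beads, His-tagged CtBP on nickel acceptor beads; compounds precede bead addition by 2 h at 37 °C.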
The depositor's hits bear a star; ? = inconclusive; . = no result given; [ ] = remark or other dose.

SMILES	D2 potentiator	gsp ag	D2 ag	Six1-Eya2 inh	gsp antag	CtBP-E1A inh
COc1ccc(S(=O)(=O)N2CCOC2CNC(=O)C(=O)NCc2ccccn2)cc1 (configuration not stated)	8.7	-0.1%[15.4 µM]	3.7	-3.9	9.6%	17.7
COc1ccccc1S(=O)(=O)Cc1ccc(C(=O)N2CCCC2)o1	-7.0	-46.3%[inhibitor]	3.5	8.7	-0.8%	-8.5
O=C1OC[C@H](Cc2ccc3c(c2)OCO3)/C1=C\c1ccc2c(c1)OCO2	6.2	-0.1%	7.7	-5.4	?	-0.2
S=C(NC1CCCCC1)N1CCN(C2CCCCC2)CC1	-14.2	0.8%[15.4 µM]	-2.0	-1.6	13.8%	-12.0
NS(=O)(=O)c1ccc(CNC(=O)/C=C/c2ccccc2[N+](=O)[O-])cc1	-21.1	31.9%	0.8	2.1	6.7%	.
O=C(CSc1nnc(-c2ccc(S(=O)(=O)N3CCCC3)cc2)o1)NCc1ccco1	-8.3	-2.9%	-1.7	5.2	-3.2%	51.5
CCc1cc2c(NCCO)ncnc2s1	-6.3	4.9%	-1.7	0.3	3.8%	2.7
Cc1ccc(C(=O)O)cc1NCc1cccnc1	-4.6	-1.6%	2.2	0.7	.	-0.2
CCN1CCN(C(=O)Cn2ncc3c2-c2ccccc2OC3)CC1	-5.3	-9.1%	0.9	0.3	1.2%	-4.1
CN(C)S(=O)(=O)c1ccc(C(=O)OCc2nnc(-c3ccccc3)o2)cc1	-3.2	-1.2%[15.4 µM]	-0.9	0.1	-9.2%	7.2
COc1cc(C)ccc1OCc1cc(C(=O)NCCN2CCCC(O)C2)no1 (configuration not stated)	10.3	-5.0%[15.4 µM]	-0.1	-2.6	8.1%	-1.4
COC(=O)c1c(C)n(-c2ccc(OC)cc2)c2ccc(O)cc12	11.1	14.8%	4.3	-0.7	3.1%	-9.8
COC(=O)c1ccc(NC(=O)C[n+]2ccccc2)cc1	-11.7	-12.8%	4.4	1.9	16.4%	2.9
CC1CCC(NC(=S)NCCN(C)C)CC1 (configuration not stated)	-11.6	4.5%[15.4 µM]	-4.3	4.9	15.9%	6.9
CC(C)CN1CCC(=O)N([C@H](CO)c2ccccc2)CC1	-11.8	.	0.1	2.7	1.5%	3.6
COc1ccc(-c2cncnc2-c2ccc(OC)cc2O)cc1	2.9	23.6%	4.7	-1.1	-20.1%	-0.4
Nc1ccc(-c2nc3ccc(N)cc3[nH]2)cc1	0.1	?	-1.1	-4.2	-25.9%	.
Fc1ccc(C2CC(c3ccccc3)Nc3ncnn32)cc1 (configuration not stated)	-6.3	8.1%	-2.1	5.6	11.2µM*	-20.3
COC(=O)C(CC(C)C)NC(=O)CNC(=O)c1ccccc1C (configuration not stated)	-6.9	-35.0%[inhibitor]	-1.3	5.4	8.8%	6.3
CC(=O)Nc1ccc2c(c1)Cc1c-2cc(Cl)c(NC(C)=O)c1Cl	-2.5	18.3%[15.4 µM]	-0.7	-9.1	-17.4%	-0.5
CC1CCCN(c2ccc(C(=O)Nc3nnc(C4CC4)s3)cc2[N+](=O)[O-])C1 (configuration not stated)	-1.8	-37.4%[inhibitor]	-1.1	1.3	-10.7%	0.5
Cc1cccc(NC2SC(=O)N(c3ccccc3)C2=O)c1 (configuration not stated)	-17.0	-14.5%	-4.6	5.4	1.8%	-4.1
CCOc1ccc(NC(=O)CSc2nnnn2CC(=O)O)cc1	9.3	12.3%	-4.0	7.6	8.9%	1.7
CC1Cc2ccccc2N1C(=O)Cn1cnc2ccccc2c1=O (configuration not stated)	14.5	0.1%	5.3	-0.5	-4.6%	-0.7
COc1ccc(C2CC(c3ccccc3)=NN2C(=O)c2ccc(F)cc2)cc1 (configuration not stated)	-9.2	14.8%[15.4 µM]	-4.0	1.9	-14.9%	4.3
O=C(O)CSCc1nc2ccccc2[nH]1	1.7	-74.6%[inhibitor]	-3.7	-1.7	10.5%	.
CC1=C/C(=N\Nc2ccccc2[N+](=O)[O-])CC(C)(C)C1	-1.8	-25.9%	-5.2	-69.2*	-1.5%	-68.0*
O=C(COc1ccccc1)N1CCN(c2nnc(-c3ccccc3)c3ccccc23)CC1	6.0	-2.8%	-1.8	-19.3	?	-23.8
COC(=O)c1ccc2nc(-c3ccc(S(C)(=O)=O)cc3)cn2c1	0.7	9.2%[15.4 µM]	-0.7	-1.9	5.6%	-1.0
CCOC(=O)c1cccc(NC(=O)c2cc(C)nn2-c2ccccc2)c1	0.1	-7.4%[15.4 µM]	1.0	2.4	-16.8%	-1.2
O=C(NCc1nc2ccccc2[nH]1)C1=C[C@H](c2ccccc2)C[C@H](OCCCCO)O1	-7.0	-0.5%	-2.9	-3.3	-3.9%	-0.6
COC(=O)c1ccccc1OCC(=O)N1CCN(c2ccc(F)cc2)CC1	-20.1	10.3%	-1.2	-0.8	4.3%	-8.0
COc1cccc(Nc2nc(C(N)CCc3ccccc3)cs2)n1 (configuration not stated)	-7.9	.	-3.1	-18.4	.	?
COc1ccc(N2CCN(Cc3cc(=O)oc4cc(C)c(Cl)c(C)c34)CC2)cc1	-18.9	-1.8%	0.8	15.4	-16.5%	0.0
COCCCNC(=O)c1cc(-c2cccnc2)nc2ccccc12	1.7	-42.7%[inhibitor]	0.3	-2.9	-1.4%	7.9
COc1cccc(C(c2ccccc2)N2C3CCC2CN(S(=O)(=O)c2ccc(F)cc2)CC3)c1 (configuration not stated)	-13.9	-14.0%[15.4 µM]	-5.6	-4.3	1.0%	-0.8
CCN(CC)C(=O)CCCSc1nnc(Nc2ccccc2F)s1	-6.3	-16.0%	4.5	9.7	-2.2%	3.0
Cc1nc2nc(C)c(CCC(=O)N3CCN(c4ccccc4)CC3)c(C)n2n1	4.2	1.9%	1.1	1.1	-3.5%	3.3
Cc1ccc2c(c1)N(CC(=O)N1CCCC1)C(=O)c1cccnc1O2	2.7	23.2%	1.1	-3.0	-5.0%	7.4
CSc1ccc(C#N)cc1NC(=O)c1cccnc1Cl	-6.4	0.2%	2.0	7.8	-2.2%	1.8

The final four records of the part before lead into the next.
SMILES	D2 potentiator	gsp ag	D2 ag	Six1-Eya2 inh	gsp antag	CtBP-E1A inh
CCN(CC)C(=O)CCCSc1nnc(Nc2ccccc2F)s1	-6.3	-16.0%	4.5	9.7	-2.2%	3.0
Cc1nc2nc(C)c(CCC(=O)N3CCN(c4ccccc4)CC3)c(C)n2n1	4.2	1.9%	1.1	1.1	-3.5%	3.3
Cc1ccc2c(c1)N(CC(=O)N1CCCC1)C(=O)c1cccnc1O2	2.7	23.2%	1.1	-3.0	-5.0%	7.4
CSc1ccc(C#N)cc1NC(=O)c1cccnc1Cl	-6.4	0.2%	2.0	7.8	-2.2%	1.8
CC1=C(C(=O)Nc2ccccc2)C(c2ccc3c(c2)OCO3)C2=C(CCCC2=O)N1 (configuration not stated)	-7.9	-17.3%	-2.8	-1.6	9.8%	5.2
CCn1c(SCC(=O)N2CCCCCC2)nc2ccccc2c1=O	-3.4	20.7%	-1.4	-12.0	-18.3%	0.0
COc1ccccc1N=NC1C(=O)N(C(N)=S)N=C1C (configuration not stated)	-12.1	-2.8%[15.4 µM]	-4.9	-12.6	2.6%	-1.6
COc1ccccc1-c1nn2c(-c3ccco3)nnc2s1	-13.9	-18.4%	-4.8	-14.9	21.2%	-21.9
O=C(COC(=O)c1cc[n+]([O-])cc1)Nc1ccc2c(c1)OCCO2	4.7	-26.4%	0.1	2.4	-6.8%	-3.7
COc1ccc(Cn2c(SCC(=O)NCc3ccco3)nc3ccsc3c2=O)cc1	-16.8	13.5%	-3.9	-4.0	10.4%	1.3
O=C(CN1C(=O)C2CC=CCC2C1=O)Nc1nc(-c2ccc(F)cc2)cs1 (configuration not stated)	4.7	19.8%	6.0	-3.9	-28.2%	3.6
CN(C)c1ccc(-c2cccc(C3CC=CC4C3C(=O)N(Cc3ccccc3)C4c3ccc4ccccc4c3)c2)cc1 (configuration not stated)	-4.1	.	-3.4	-22.5	-5.1%	-19.5
CCOc1ccccc1NC(=O)c1sc2ncn(CC(=O)N3CCOCC3)c(=O)c2c1C	-3.5	?	2.1	-13.5	-7.3%	-6.9
Cc1cc(CSc2ccccc2)ccc1NC(=O)c1cccc([N+](=O)[O-])c1	-5.3	0.0%	-0.7	6.5	5.1%	-0.4
CC(C)CN1CCC(Oc2cccc(C(=O)NCCc3ccccc3)c2)CC1	-2.7	-7.3%	-2.5	0.0	-14.2%	-1.2
COc1ccc(N2C(=O)CCC(C(=O)N3CCCCCC3)C2c2ccc(OC)c(OC)c2)cc1 (configuration not stated)	5.3	5.7%	-5.1	-0.3	11.1%	-0.4
CCc1nc2ccc(C(=O)Nc3cccc(NS(C)(=O)=O)c3)cn2c1N(C=O)CCC(C)C	1.9	.	5.8	0.5	.	2.8
Cc1ccc(-c2nnc(CSc3nncn3N)o2)cc1	-6.4	-25.9%	-6.3	9.0	-0.5%	-4.0
COC(=O)c1cccnc1NC(=S)NC(C)C	2.3	9.5%[15.4 µM]	-6.5	0.0	-15.1%	21.7
O=C(COC(=O)CCC(=O)c1ccc(F)cc1)Nc1ccc(Cl)cn1	-17.6	-9.0%	1.4	2.7	6.8%	-2.9
O=C(Nc1ccc2ccccc2c1)c1onc2c1CCCC2	-8.1	-20.9%	-2.1	19.1	1.8%	23.6
COc1ccc(S(=O)(=O)N2CCN(Cc3cccnc3)CC2)cc1	-1.2	20.9%	-2.5	3.4	-0.3%	1.3
CCN(CC(=O)Nc1c(F)cccc1F)C(=O)c1ccc(C(=O)c2ccccc2)cc1	-4.5	-38.1%	-1.0	0.8	-1.8%	-18.5
COc1ccccc1/C=N/NC(=O)c1ccc(=O)n(C)c1	-4.5	-46.3%	-0.8	19.5	-2.5%	3.7
COc1cc(OCc2ccccc2)c(CC(=O)O)c([N+](=O)[O-])c1	-4.0	1.3%	-0.1	4.5	.	0.0
Cc1ccc(-c2noc(-c3ccoc3C)n2)cc1	-4.6	-1.8%	1.8	5.4	3.7%	2.4
O=C(COc1ncnc2sccc12)NC1CCCc2ccccc21 (configuration not stated)	-0.5	4.6%	0.6	7.6	10.8%	10.7
O=C(OCc1cccc(F)c1)c1cc2ccccc2cc1O	0.8	-86.3%[inhibitor]	-0.9	20.2	-21.4%	36.0
S=P(N1CC1)(N1CC1)N1CC1	-1.7	.	-2.4	-3.3	1.7%	-3.3
CC(=O)c1cccc(NS(=O)(=O)c2ccc3c(c2)oc(=O)n3C)c1	-7.6	-23.7%	-2.3	18.9	0.9%	32.7
Cc1ccc(NC(=O)c2sc(Cl)nc2C)c(C)c1	0.3	-7.0%[15.4 µM]	-1.3	-0.4	8.8%	-2.5

Screening data deposited in PubChem by National Center for Advancing Translational Sciences (NCATS).
